Screens from PubChem BioAssay.
Beta2AR agonist: beta2AR agonists driving receptor internalization, primary screen, cell-based, FAP fluorogen, flow cytometry; Beta-2 adrenergic receptor (Homo sapiens), P07550; Am2.2-beta2AR cells; reference of the scale not given here; response, % (no concentration beside the values); 340,000 compounds, 0.43% hits; AID 504454, 2011;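 active means response above a set limit, near 3 SD of response in nonfluorescent compounds, cut at about 42% in these data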;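 further: stock transfer was 100 nL into about 11 µL; a reference agonist was the positive control; negative values mostly stem from fluorescent compounds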
Target sequence (P07550 whole entry, looked up): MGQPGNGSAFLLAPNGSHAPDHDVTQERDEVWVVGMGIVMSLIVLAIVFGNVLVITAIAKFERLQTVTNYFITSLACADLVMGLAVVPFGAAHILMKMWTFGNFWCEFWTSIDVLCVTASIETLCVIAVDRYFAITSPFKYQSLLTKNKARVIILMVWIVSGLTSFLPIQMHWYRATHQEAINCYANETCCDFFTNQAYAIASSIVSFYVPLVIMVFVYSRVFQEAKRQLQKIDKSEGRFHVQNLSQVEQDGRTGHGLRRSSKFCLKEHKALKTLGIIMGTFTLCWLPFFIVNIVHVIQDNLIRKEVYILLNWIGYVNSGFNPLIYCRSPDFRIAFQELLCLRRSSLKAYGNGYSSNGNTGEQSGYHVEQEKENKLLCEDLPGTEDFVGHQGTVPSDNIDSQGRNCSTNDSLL
A1 inh: caspase 3/7 activation in MEF A1-2A-BIM cells, primary screen, A1 inhibitor project, cell-based, luminescence, HTS | AID 2462, 2010 | caspase activation, % (no concentration beside the values) | Caspase-Glo 3/7 luminescence, 3 h; percent of clofoctol response, vehicle zero | 330,000 compounds, 0.066% hits;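 active means over half of replicate activation scores above 10%, or exactly half above 10 with the replicate mean above 10; inconclusive means replicate mean below 10 yet half the replicates above 10; inactive means over half of replicates below 10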;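 further: wells of about 30 µL received 50 nL stock; many hits fall short of the cut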
Calb FLC: C. albicans growth inhibition with fluconazole, primary screen, CaCi-2 strain, Alamar Blue fluorescence | C. albicans CaCi-2 (fluconazole-resistant clinical isolate) + fluconazole, 48 h | growth inhibition, % (no concentration beside the values) | 300,000 compounds, 0.57% hits;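 active means most replicates above 75%; inconclusive means exactly half above 75%; inactive means most below 75%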;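 further: all wells also contain fluconazole at 8 µg/ml as a sub-toxic cotreatment; 0% = median of DMSO wells and 100% = median of geldanamycin control wells; wells of about 8 µL received 7.5 nL stock; the first replicate is given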
Ecoli rRNA inh: reduced GFP signal of wild-type E. coli, primary screen, bacterial rRNA inhibitor project, GFP/RFP fluorescence, OD600, single point; 350,000 compounds, 1.6% hits; AID 720706, 2013; GFP signal change (wild-type ribosome), % (test concentration not listed); E. coli WT GFP vs humanized-ribosome RFP mutants, 24 h; stronger effect = lower value; DMSO median 0, no signal -100;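 active means significant combined selectivity score with lowered wild-type GFP, culture density cut under 30%, mutant RFP and density less affected; inactive means any of these conditions unmet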; further: one replicate is shown; some compounds called inactive have numbers as strong as hits
LANA-H2A inh: blockers of LANA interaction with H2A/H2B – biochemical, FP readout, HTS, primary screen. Protein LANA1 (Human herpesvirus 8 type P (isolate GK18)), Q9QR71. cell-free LANA-H2A/H2B peptide, fluorescence polarization. inhibition, % (concentration not given with the values). 320,000 compounds, 0.6% hits. AID 2629, 2010; in the data active means inhibition mostly above about 10%, no sharp cut-off; inactive means mostly below about 6.7%;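 further: stock transfer was 7.5 nL into about 10 µL; 0% = median of vehicle wells and 100% = median of positive control wells; one replicate is shown; the record names a cut of 25% in any replicate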
Beta apoptosis: inhibitors of cytokine-induced beta cell apoptosis, primary screen, luminescence; 300,000 compounds, 0.8% hits; protection from apoptosis, % (no concentration beside the values); INS-1E cytokine-induced death, ATP luminescence, 48 h; percent of positive-control rescue, neutral wells zero; AID 435005, 2010;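 active means all replicates at 75% or more, or half of them and the mean; inconclusive means half reach 75% but not the mean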;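 further: 0% = cytokine-treated negative control wells and 100% = positive control rescue; higher means more ATP so stronger rescue from cytokine killing; wells of about 40 µL received 100 nL stock; the first replicate is given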
ALR H2O2 inh: inhibitors of human ALR sulfhydryl oxidase, primary screen, biochemical, H2O2 detection, HRP-luminol luminescence, single point; FAD-linked sulfhydryl oxidase ALR (Homo sapiens), P55789; purified ALR, DTT oxidation; inhibition, % (concentration not given with the values); 290,000 compounds, 3.8% hits; AID 485317, 2010;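 active means mean and each replicate at 75% or more; inconclusive means only one of the two met; inactive means neither met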;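 further: stock transfer was 7.5 nL into about 7.5 µL; 0% = neutral wells and 100% = wells with inactivated enzyme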
Target sequence (P55789 whole entry, looked up): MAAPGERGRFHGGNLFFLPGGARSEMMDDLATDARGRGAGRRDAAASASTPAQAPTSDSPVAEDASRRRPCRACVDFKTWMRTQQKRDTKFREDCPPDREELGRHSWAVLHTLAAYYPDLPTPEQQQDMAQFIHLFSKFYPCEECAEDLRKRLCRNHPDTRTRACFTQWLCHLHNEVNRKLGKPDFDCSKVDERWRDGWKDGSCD
T cruzi inh: inhibitors of intracellular T. cruzi growth, primary screen, luminescence, NIH3T3 host cells; inhibition, % (test concentration not listed); T. cruzi beta-gal in NIH3T3, 90 h; AID 1885, 2009; 300,000 compounds, 1.4% hits;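 active means mean inhibition across valid replicates above about 55%, limit read from the data; inconclusive means mean below that limit but half or more replicates reach it; inactive means mean below it, under half of replicates reach it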;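 further: signal also drops with host cell toxicity which is not excluded here; 0% = plate median of DMSO wells and 100% = zero luminescence signal; higher percent means less beta-gal luminescence so fewer parasites; stock transfer was 50 nL into about 50 µL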
Ecoli rRNA inh OD600: recorded beside Ecoli rRNA inh, whose call it bears; OD600 change, %; measured here: OD600 growth;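 optical density of the mix in the first replicate; 0 = DMSO median and -100 = no signal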
Ecoli rRNA inh RFP: also measured in Ecoli rRNA inh; calls as there; RFP signal change, %; measured here: RFP humanized mutant strains;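 first replicate; 0 = DMSO median and -100 = no signal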
Numbers without * were called inactive; ? = inconclusive; / = not tested or not shown. Some of the compounds tested. The share of hits here may be higher or lower than overall.

SMILES	Beta2AR agonist	A1 inh	Calb FLC	Ecoli rRNA inh	Ecoli rRNA inh OD600	Ecoli rRNA inh RFP	LANA-H2A inh	Beta apoptosis	ALR H2O2 inh	T cruzi inh
O=C(CN1C(=O)c2ccccc2C1=O)Nc1sc2c(c1C(=O)NCc1ccco1)CCCC2	20	0.3	-3	/	/	/	-0.3	-21	1	-6
Cc1ccc(C(=O)OCC(=O)Nc2cccc(S(=O)(=O)NC3=NCCCCC3)c2)c(C)c1	1	0.3	-4	-22*	-16*	0.1*	0.2	-1	-29	2
COC(=O)c1cccc(NC(=O)c2ccc3c(c2)C(=O)N(Cc2cccnc2)C3=O)c1	4	0.7	0	-7	-10	-0.1	6.7	0	-7	-13
COc1ccc(C2(c3ccc(OC)cc3)NC(=O)N(CC(=O)N(C)C3CCC(C)CC3)C2=O)cc1 (configuration not stated)	20	0.0	/	-4	-9	-1.0	2.4	-2	-1	/
CCCc1cc(=O)[nH]c(/N=C(\N)Nc2ccccc2)n1	-1	-0.1	2	3	6	-2.1	-4.6	-9	-3	-14
Cc1ccc(CN2CCSc3ccc(C(=O)N4CCOCC4)cc32)cc1	2	0.2	-1	/	/	/	4.2	3	99*	4
Cc1ccc(SCC(=O)NCc2ccccc2C)cc1	-6	0.5	1	1	1	-9.1	-2.1	0	-2	7
Cc1cccc(C)c1NC(=S)NNc1ncc(C(F)(F)F)cc1Cl	3	0.4	2	/	/	/	-2.3	0	-6	-9
Cc1cc(C)c(S(=O)(=O)N2CCCCCC2)cc1Br	-10	?	-17	-37	-41	-3.5	0.0	-4	-11	26
O=C(Nc1nnc(-c2ccc(Cl)s2)o1)C1CCCCC1	1	-0.1	7	-1	-3	-2.2	1.8	/	-12	0
O=C(CSc1nnc(CNC(=O)c2ccco2)o1)c1ccc(Cl)cc1	6	0.5	0	/	/	/	-0.1	0	20	-4
Cc1nc2ccccc2c(=O)n1NC(=O)c1cc(Br)ccc1Cl	1	0.8	-9	-3	1	-2.4	6.9	-3	0	6
COCCNC(=O)CC(=O)N/N=C/c1cccc(C(=O)OC)c1	1	0.8	-11	27	23	3.5	3.6	-6	-3	-11
CC(=O)c1ccc(NC(=O)Oc2ccccc2)cc1	-5	-0.6	10	/	/	/	1.1	-6	4	-14
CCc1ccccc1NC(=O)CCc1c(C)nc(SC)nc1C	-5	-0.4	5	2	-1	-0.7	-5.5	-5	1	-2
c1ccc(Cn2cc(-c3ccccc3)cn2)cc1	-11	1.1	/	2	3	1.0	3.9	-3	-9	/
CN(CCc1ccccn1)C(=O)CCC1CCCN(C(=O)c2cscn2)C1 (configuration not stated)	1	-0.7	-16	11	10	-0.8	-0.5	-2	2	-9
COc1ccc(C(CNC(=O)c2ccc(OCC3CCCO3)cc2)N2CCOCC2)cc1 (configuration not stated)	-4	0.0	-3	/	/	/	-1.0	-1	-7	5
CCOc1ccccc1NC(=O)N1CCC(C(=O)c2ccc(F)cc2)CC1	1	-0.7	-23	/	/	/	-2.7	17	-5	-1
O=C(/C=C/c1ccccc1)Nc1cccnc1Cl	-2	-6.6	-2	-3	9	-0.5	-0.2	-3	/	-21
O=C(O)c1cccc(-n2cccc2C=C2C(=O)c3ccccc3C2=O)c1	-8	0.3	17	-10	-8	-1.0	7.2	0	-2	-12
O=C(NCc1ccc2c(c1)OCO2)c1ccc(-n2cnnn2)cc1	14	-0.9	-15	-2	-2	-1.8	2.8	-9	1	4
CC1(C)CC(=O)C=C(c2cccc3c2sc2ccccc23)C1	-6	-1.0	/	-9	-5	1.8	0.4	-4	-7	/
O=C(Nc1cccc2cccnc12)c1ccc(Cl)cc1Cl	3	-0.6	9	12	15	9.1	-2.0	-6	-23	16
Cc1ccc(-n2c(C)cc(C(=O)CN3C(=O)C(=O)N(C4CCCC4)C3=O)c2C)cc1	6	0.0	-12	-12	-20	24	3.7	2	-6	5
The listing continues:
SMILES	Beta2AR agonist	A1 inh	Calb FLC	Ecoli rRNA inh	Ecoli rRNA inh OD600	Ecoli rRNA inh RFP	LANA-H2A inh	Beta apoptosis	ALR H2O2 inh	T cruzi inh
COc1ccc(OC)c(S(=O)(=O)NCc2nc3nc(C)cc(C)n3n2)c1	7	0.8	18	5	7	3.8	1.8	2	0	-14
Cc1ccc(Cl)cc1NS(=O)(=O)c1ccc(-n2cccn2)cc1	/	0.0	-3	-1	-4	2.4	-5.1	-2	-11	-2
Cc1ccc(NS(=O)(=O)c2cc(Br)cnc2N)cc1C	1	-0.7	-2	-57	-79	-21	-6.1	-2	0	-5
Cc1ccc(C)c(Cn2c(=O)n(CCCC(=O)NCc3ccco3)c(=O)c3sccc32)c1	6	0.2	-17	/	/	/	4.1	2	/	-8
CC1(C)Cc2ccccc2-c2nc(NCCO)n(-c3ccccc3)c(=O)c21	-4	-0.3	-6	/	/	/	-7.3	-8	-7	/
CCC(C)n1c(SCc2ccccc2)nc2ccsc2c1=O (configuration not stated)	15	0.1	-3	/	/	/	-0.9	10	-3	-7
COC(=O)[C@@H](NC(=O)NC1CCCCC1C)C(C)C (some centres not stated)	-6	-0.7	2	11	15	-2.3	1.3	-4	-1	-1
COc1ccccc1NC(=O)COc1ccc(C(F)(F)F)cc1[N+](=O)[O-]	-14	-0.4	-1	/	/	/	-2.2	5	-9	10
O=C(CCS(=O)(=O)Cc1ccccc1)Nc1ncc([N+](=O)[O-])s1	6	0.7	2	-4	-3	-0.8	-0.5	-13	-4	-20
CCCCn1c(Cc2ccccc2)n[nH]c1=S	5	/	-7	/	/	/	5.4	2	45	4
Cc1cc(C)cc(CC2CC(=O)N(c3cc(C)on3)C2=O)c1 (configuration not stated)	-9	1.0	5	/	/	/	2.6	4	-2	-2
CC(C)Oc1ccc(C(=O)OCC(=O)NC(=O)NC2CCCC2)cc1	-4	-1.4	/	-18	-28	-2.5	2.6	-5	-8	/
O=C(CNC(=O)C1CCCCC1)OCC(=O)c1cccc(Cl)c1	5	-0.6	/	8	19	1.7	-12	-6	/	/
CCC1CCCCN1Cc1nc2c(c(=O)n(C)c(=O)n2C)n1CC(C)C (configuration not stated)	6	-0.2	-6	3	14	-1.8	2.2	1	4	-6
N=c1c(C(=O)NCC2CCCO2)cc2c(=O)n3ccccc3nc2n1C1CCCC1 (configuration not stated)	-8	-0.3	2	4	4	1.7	0.5	/	-5	20
CCOc1ccc(C(=O)OCC(=O)Nc2nc(OC)cc(OC)n2)cc1OCC	-2	0.1	-1	/	/	/	5.5	-4	0	-1
O=C(Nc1ccc2[nH]c(=O)[nH]c2c1)Nc1ccc(F)cc1F	-6	-0.1	8	9	1	-3.9	-0.6	-1	13	-10
Cc1ccc(NC(=O)c2ccc(=O)[nH]c2)cc1S(=O)(=O)N1CCCCCC1	-5	-0.6	/	-16	-22	-0.7	1.9	-3	4	/
COc1cc(OC)c(OC)cc1CN1CCN(S(=O)(=O)c2ccc(NC(C)=O)cc2)CC1	4	-0.1	-1	6	7	0.9	0.6	-1	-23	11
CCOC(=O)C1CCN(C(=O)CN(c2ccc3c(c2)OCO3)S(C)(=O)=O)CC1	5	0.0	10	/	/	/	-0.1	1	2	1
COc1ccc(C(=O)NNC(=O)c2ccc(C(C)(C)C)cc2)cc1	1	1.3	22	21	14	-0.1	-1.1	-15	-7	12
COc1ccc(C(=O)CSc2cc(C)[nH]c(=O)n2)cc1	3	-1.2	0	7	14	3.8	-3.7	-8	/	0
O=C(Nc1ccon1)c1nc[nH]c1C(=O)NCc1ccccc1	-12	-1.1	/	11	14	-2.1	-0.4	3	-10	/
CCN(CC)S(=O)(=O)c1ccc2oc(C(=O)O)c(C)c2c1	1	0.6	0	/	/	/	-1.5	-7	1	-12
CCOC(=O)CSc1nc2ccc(N)cc2s1	-3	1.1	-15	/	/	/	-1.2	-1	99*	0

For convenience, some entries already given:
SMILES	Beta2AR agonist	A1 inh	Calb FLC	Ecoli rRNA inh	Ecoli rRNA inh OD600	Ecoli rRNA inh RFP	LANA-H2A inh	Beta apoptosis	ALR H2O2 inh	T cruzi inh
O=C(CN1C(=O)c2ccccc2C1=O)Nc1sc2c(c1C(=O)NCc1ccco1)CCCC2	20	0.3	-3	/	/	/	-0.3	-21	1	-6
Cc1ccc(C(=O)OCC(=O)Nc2cccc(S(=O)(=O)NC3=NCCCCC3)c2)c(C)c1	1	0.3	-4	-22*	-16*	0.1*	0.2	-1	-29	2
COC(=O)c1cccc(NC(=O)c2ccc3c(c2)C(=O)N(Cc2cccnc2)C3=O)c1	4	0.7	0	-7	-10	-0.1	6.7	0	-7	-13
COc1ccc(C2(c3ccc(OC)cc3)NC(=O)N(CC(=O)N(C)C3CCC(C)CC3)C2=O)cc1 (configuration not stated)	20	0.0	/	-4	-9	-1.0	2.4	-2	-1	/
CCCc1cc(=O)[nH]c(/N=C(\N)Nc2ccccc2)n1	-1	-0.1	2	3	6	-2.1	-4.6	-9	-3	-14

Later entries:
SMILES	Beta2AR agonist	A1 inh	Calb FLC	Ecoli rRNA inh	Ecoli rRNA inh OD600	Ecoli rRNA inh RFP	LANA-H2A inh	Beta apoptosis	ALR H2O2 inh	T cruzi inh
O=C(CCn1c(SCC(=O)c2ccccc2)nc2ccccc2c1=O)NCc1ccc(F)cc1	6	-0.3	?	/	/	/	-5.1	-1	-2	-16
O=C(Cc1cccc(F)c1F)NC1CCCN(Cc2ccc(Cl)cc2)C1 (configuration not stated)	0	-1.3	0	-12	-13	2.1	4.7	/	0	47
CCOC(=O)c1cc(C(=O)c2cc(Cl)ccc2O)coc1=N	1	0.2	39	-12	-15	-1.0	-4.1	-1	-7	-18
CCOC(=O)C1=C(c2cccc(Oc3ccccc3)c2)NC(=S)NC1C (configuration not stated)	20	0.2	-3	/	/	/	-3.8	13	4	13
Cc1oc(-c2cccc(C(F)(F)F)c2)nc1CN1CCC[C@H]1CO	-11	0.2	-29	8	6	-3.2	-1.1	-3	-3	2
COc1ccccc1C(CC(=O)c1ccccc1)CC(=O)c1ccccc1	2	0.2	0	-12	-14	-1.1	3.1	6	-3	36
Cc1nc(CNC(=O)CC2C(=O)NCCN2Cc2ccoc2)nc2c1CCCC2 (configuration not stated)	8	-0.2	-2	11	1	-2.5	-1.0	-13	/	3
CCN1CCN(C(=O)CN(C)S(=O)(=O)c2ccc3ccccc3c2)CC1	-3	0.0	-24	2	0	0.7	2.9	-5	/	13
